PINK1 expr mod: PINK1 expression modulation; PINK1 immunofluorescence, high-content cytometry, 24 h; 0.2% of 410,000 active; Potency, µM (doses to about 76.6 µM), for inactives: top-dose activation (PINK1 increase), hits mostly activators; active = well fitted activation curve with a large enough effect; inconclusive = small, poorly fitted or top-dose-only effect; inactive = flat fitted curve, though single readings scatter; cell line not stated here;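 also: potency is read from the fitted curve at half-maximal effect; % of control where 0% means no effect; nearly all actives have a fitted effect of over 65% in size; a mitochondrial uncoupler was the plate control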
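Compound titrations (5 concentrations, 24 h) on a stable cell line; DMSO and CCCP controls. Endpoint: fixed-cell PINK1 immunofluorescence with mitochondrial, cell and nuclear markers, scanned by microplate cytometer.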
TRPML1 ag: human mucolipin-1 channel agonism; Q9GZU1; TRPML1-expressing cells, Ca2+ dye fluorescence, FDSS; host cell line not named in the record; reference of the full effect not given here; activation, % (test concentration not listed); 0.12% of 410,000 active; in the data active = activation above about 50%; inconclusive = about 30% to 50%; inactive = below about 30%; also: 0% is about no effect; the text of the record puts the active cut at 80%
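Calcium fluorescence on an FDSS kinetic reader gave the read-out. Tet-induced TRPML1-DL cells were plated overnight, dye-loaded (Ca8 with quencher, 45-90 min, room temperature, dark), then read 110 s after compound addition, and again 110 s after 4uM final 54-4 (EC80).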
Sfp inh: blocks B. subtilis Sfp PPTase activity. Q9F4F7. Biochemical Sfp PPTase activity, qHTS. Potency, µM, without a hit: max response, negative = inhibition, usual class: inhibitors. 3.5% of 310,000 active. AID 1490; active = well fitted inhibition curve with a large enough effect; inconclusive = small, poorly fitted or top-dose-only effect, or another doubt; inactive = no such curve, though single readings can be large or run the other way;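 also: the enzyme is Sfp with the accession as filed and its product quenches rhodamine fluorescence; potency is read from the fitted curve at half-maximal effect; 0% = enzyme reaction without inhibitor and -100% = no enzyme wells; top concentration of the series not given in the record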
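Fluorescence-quenching assay: 15 nM Sfp-PPTase preincubated 15 min at room temperature with compound, then 5 uM rhodamine-CoA and 12.5 uM BHQ-2-labelled YbbR peptide added. Fluorescence (ex 525/em 598 nm) read at start and after 30 min; difference gives rate.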
TRPML1 blocker: human mucolipin-1 channel inhibition; 0.02% of 390,000 active; Q9GZU1; TRPML1-inducible cells, Ca2+ dye fluorescence, FDSS; active compounds read low; inhibition of EC80 agonist-evoked calcium signal; activity change, negative = inhibition, % (no concentration beside the values); in the data active means activity change below about -50%; inconclusive means about -30% to -50%; inactive means above about -30%;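 also: stimulus is agonist 54-4 at its EC80 concentration; % is scaled to controls: 0 for no effect and ±100 for the full control effect; compound concentration not given in the record; the text of the record puts the active cut at -80%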
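Tet-induced TRPML1-DL cells loaded with Ca8 no-wash calcium dye were read kinetically on FDSS. Compound addition was followed by EC80 agonist 54-4 (4 uM final); inhibition was read over 110 s.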
ClpP mod: qHTS Assay for Activators of ClpP. ATP-dependent Clp protease proteolytic subunit (Bacillus subtilis (strain 168)), P80244. purified B. subtilis ClpP, FRET peptide cleavage, 20 min. Potency, µM (titrated, usually from 57.5 µM), without a hit: top-dose activity change, negative = active. 1.9% of 340,000 active. AID 651965, 2013; active = well fitted falling curve with a large enough effect; inconclusive = small, poorly fitted or top-dose-only effect; inactive = no such curve, though single readings can be large or run the other way; also: potency is read from the fitted curve at half-maximal effect; the source files actives as falling curves though it sought activators and does not explain the sign; nearly all actives have a fitted effect of over 65% in size; many hits overshoot -100%
Target sequence (P80244 whole entry, looked up): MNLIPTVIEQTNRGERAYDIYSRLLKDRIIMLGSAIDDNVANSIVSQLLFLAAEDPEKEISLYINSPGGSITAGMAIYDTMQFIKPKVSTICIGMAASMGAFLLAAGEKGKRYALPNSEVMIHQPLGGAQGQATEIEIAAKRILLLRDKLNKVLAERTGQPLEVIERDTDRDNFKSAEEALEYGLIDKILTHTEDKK
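Buffer: 100 mM Tris/HCl pH8, 100 mM KCl, 0.05% low protease BSA, 2.5% glycerol, 0.01% Tween-20. ClpP 10 microg/mL final; 20 min RT; delta FRET normalized to ADEP and DMSO controls.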
TRPV1 PAM: potentiators of human vanilloid receptor 1 (TRPV1). Q8NER1. TRPV1-expressing cells, Fluo-8 calcium influx, capsaicin EC20 potentiation; host cell line not named in the record; control for the full effect not named in the record. potentiation, % at 8.33 µM. 0.02% of 320,000 active; active means potentiation above 80%; inconclusive means 30% to 80%; inactive means below 30%; also: 0% is about no effect
Target sequence (Q8NER1 whole entry, looked up): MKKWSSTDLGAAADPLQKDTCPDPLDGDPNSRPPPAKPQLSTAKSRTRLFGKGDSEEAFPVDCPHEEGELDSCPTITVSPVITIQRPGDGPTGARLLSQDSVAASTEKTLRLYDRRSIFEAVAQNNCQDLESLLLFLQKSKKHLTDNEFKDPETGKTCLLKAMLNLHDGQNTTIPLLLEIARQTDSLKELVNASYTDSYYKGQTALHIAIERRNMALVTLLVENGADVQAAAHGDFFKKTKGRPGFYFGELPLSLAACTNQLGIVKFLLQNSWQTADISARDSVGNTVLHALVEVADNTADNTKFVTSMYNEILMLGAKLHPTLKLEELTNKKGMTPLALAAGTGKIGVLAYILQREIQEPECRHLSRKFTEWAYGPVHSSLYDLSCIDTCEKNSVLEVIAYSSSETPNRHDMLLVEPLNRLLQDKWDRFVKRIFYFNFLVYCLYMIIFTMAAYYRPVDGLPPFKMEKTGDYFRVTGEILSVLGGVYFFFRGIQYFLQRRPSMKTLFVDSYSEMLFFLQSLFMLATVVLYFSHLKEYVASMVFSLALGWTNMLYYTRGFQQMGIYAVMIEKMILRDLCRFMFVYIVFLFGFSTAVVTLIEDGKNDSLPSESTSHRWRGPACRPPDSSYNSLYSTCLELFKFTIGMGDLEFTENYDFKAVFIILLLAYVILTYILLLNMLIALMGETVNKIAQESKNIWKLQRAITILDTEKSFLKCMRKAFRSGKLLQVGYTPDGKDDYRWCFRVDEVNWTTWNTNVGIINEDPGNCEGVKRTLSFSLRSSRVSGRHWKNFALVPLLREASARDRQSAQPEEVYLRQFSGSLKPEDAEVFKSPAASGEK
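Fluo-8 calcium influx in TRPV1-expressing cells, kinetic read (ex 480/em 520 nm). Compound added and read 3 min for agonist activity, followed by capsaicin at EC20 final and 2 min further read for enhancement.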
Menin-MLL FL inh: menin-MLL binding inhibition, fluorescein peptide; Fluorescence polarization, fluorescein-MLL peptide displacement from menin; FP activity change, % at 61.4 µM; AID 1766; 290,000 tested, under 10 active; inconclusive = falling polarisation curve, or a change in total fluorescence; inactive = total fluorescence flat and polarisation flat or rising; no compound was filed as active; the % refers to the polarisation; negative = inhibition;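 also: % of control where 0% means no effect; inhibitors lower the polarisation; unlabelled MLL peptide was the positive control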
An asterisk follows results filed as active; ? = inconclusive; / = no result given; & = joins results of further samples; [ ] = dose if it differs, or a comment.

A first look (two entries):
SMILES	PINK1 expr mod	TRPML1 ag	Sfp inh	TRPML1 blocker	ClpP mod	TRPV1 PAM	Menin-MLL FL inh
COc1ccc(C2C=C3CNS(=O)(=O)C3CC2OC(=O)c2cccc(C)c2)cc1 (configuration not stated)	/	1.4	9.2%	6.0	/	/	2.0
CC1(C(=O)NS(=O)(=O)c2ccc(C#N)cc2)CCN1C(=O)c1ccc(C2CCCCC2)cc1 (configuration not stated)	-0.3%	-0.8	/	/	-4.4%	/	/

The listing, repeating the preview:
SMILES	PINK1 expr mod	TRPML1 ag	Sfp inh	TRPML1 blocker	ClpP mod	TRPV1 PAM	Menin-MLL FL inh
COc1ccc(C2C=C3CNS(=O)(=O)C3CC2OC(=O)c2cccc(C)c2)cc1 (configuration not stated)	/	1.4	9.2%	6.0	/	/	2.0
CC1(C(=O)NS(=O)(=O)c2ccc(C#N)cc2)CCN1C(=O)c1ccc(C2CCCCC2)cc1 (configuration not stated)	-0.3%	-0.8	/	/	-4.4%	/	/
CCc1ccccc1NC(=O)c1sc2nc(C)cc(COC)c2c1N	0.5%	0.1	/	-10.1	-2.6%	/	/
Cc1noc(C)c1COc1ccc(C(=O)N2CCN(c3ccccc3O)CC2)cc1	1.1%	-1.4	/	24.2	-0.3%	-4.4	/
Fc1ccc(-c2csc(/C=C/c3ccc4c(c3)OCO4)n2)cc1	13.7%	1.7	8.5%	5.9	4.0%	10.5	3.7
O=C(COC(=O)/C=C/c1cccc(Br)c1)NC1CCCC1	3.9%	-0.2	/	-13.6	/	/	/
CCc1noc(C)c1C(=O)N1CCCC(C(=O)c2ccc(OC)c(F)c2)C1 (configuration not stated)	-2.5%	-0.3	9.1%	-0.6	-1.6%	0.8	3.3
CCn1c(SCc2ccc(Cl)cc2)nnc1-c1ccccc1	-0.1%	0.1	4.8%	-4.3	-0.4%	-6.5	-1.8
CCN(CC)c1ccc(C2C(C(N)=O)=C(C)Nc3nc(SCc4ccccc4Cl)nn32)cc1 (configuration not stated)	13.4%	0.5	/	-2.8	-10.5%	/	/
CCOP(=O)(c1ccccc1)c1nc(-c2ccccc2Cl)oc1N1CCCCC1 (configuration not stated)	-0.8%	4.4	?	34.9	20µM*	-16.4	0.1
Cc1cc(C)nc(Nc2nc(C(N)Cc3ccc(Cl)cc3)cs2)n1 (configuration not stated)	-1.2%	1.4	/	/	-0.2%	/	/
COc1ccccc1N(C)S(=O)(=O)c1ccc(Cl)c(C(=O)OCc2c(C)noc2C)c1	-2.5%	1.2	0.2%	7.4	/	-12.8	1.9
O=C(O)C[C@H]1c2ccc(C(F)(F)F)cc2S(=O)(=O)N1Cc1ccccc1	4.4%	-0.5&0.0	/	-1.1	-2.9%&-5.1%	/	/
CCN(C)c1ccc(/C=C/c2ccnc3ccccc23)cc1	2.4%	?	/	/	-0.4%	/	/
Cc1nn(Cc2ccccc2Cl)c(C)c1C(=O)NC1=NCCS1	0.0%	-0.3	18.9%	3.1	-1.4%	-4.4	0.7
CC[C@@]1(C(=O)OC)N[C@H](CN(C)C(=O)C2CCCCC2)[C@@H]2C(=O)N(C)C(=O)[C@@H]21	1.1%	5.3	/	-1.4	1.2%	/	/
CCOC(=O)c1cccc(NC(=O)NCCc2c(C)nn(C)c2C)c1	0.6%	-1.0	/	13.1	-3.0%	/	/
COc1ccc(Br)c2c1C(=O)CC2	1.1%	0.6	8.2%	-13.0	/	9.0	-1.0
CC(C)(C(=O)O)n1cncn1	0.9%	0.3	5.8%	30.8	/	6.3	0.7
Cn1ccnc1Sc1ccc(/C=N/NC(=O)c2ccccc2[N+](=O)[O-])cc1[N+](=O)[O-]	-2.3%	-0.4	-7.1%	-0.3	-2.0%	-8.1	1.5
O=C(O)C(Cc1c[nH]c2ccccc12)N1C(=O)C2C3c4ccccc4C(c4ccccc43)C2C1=O (configuration not stated)	0.4%	-0.5	20.5%	-4.4	/	4.9	0.2
CC1(C)CC(=O)C2=C(C1)OC(N)=C(C#N)C2c1cn(-c2ccccc2)nc1-c1ccc(F)cc1 (configuration not stated)	2.2%	-0.6	16.4%	-5.4	-0.3%	-7.0	1.6
CC1=C(C(=O)O)CC(S(=O)(=O)O)C1(C)C (configuration not stated)	-3.6%	-0.7	/	26.2	-0.9%	/	/
COc1ccc(CCN2CCCn3c2nc2c3c(=O)n(C)c(=O)n2C)cc1OC	-0.7%	0.6	11.6%	-7.9	/	26.2	0.1
Cn1ccnc1C(=O)C1CCCN(Cc2cn[nH]c2-c2ccc(-c3ccccc3)cc2)C1 (configuration not stated)	-0.9%	-0.5	10.7%	-1.5	-0.6%	3.1	0.0
CC(=O)N1CCCc2cc(S(=O)(=O)N3CCN(C4CCCCC4)CC3)ccc21	-0.7%	1.1	-8.0%	-11.4	0.3%	9.1	3.0
Cc1ccc(S(=O)(=O)C(C)C(=O)c2ccc3c(c2)OCCO3)cc1 (configuration not stated)	2.9%[38.3 µM]	0.6	14.3%	4.7	-3.0%	-16.6	3.7
O=C(O)c1ccc(-c2ncc[nH]2)cc1	-1.0%	-0.3	-7.1%	-4.9	/	13.1	1.0
Cc1ccc(-c2nc3cccnc3s2)cc1NS(=O)(=O)c1cccs1	3.3%	1.0	-13.2%	32.8	-20.2%	5.1	1.2
Cc1ccccc1C(C(=O)NCc1ccco1)N(CC1CCCO1)C(=O)Cn1nnc2ccccc21 (configuration not stated)	2.6%	-0.7	-25.4%	-5.2	-6.3%	0.4	-2.8
COc1ccc(CNC(=O)C2CCCCN2S(=O)(=O)c2ccc(F)cc2)cc1 (configuration not stated)	3.2%	-0.6	/	24.2	-3.8%	/	/
COc1cc(S(=O)(=O)NC2CCCCC2C)ccc1F (configuration not stated)	4.0%	2.3	9.2%	-8.3	-0.6%	-2.9	-5.8
Cc1cccc(Nc2nc(NCc3ccco3)nc(N3CCOCC3)n2)c1	-0.3%	0.2	-2.3%	10.4	-1.0%	-10.9	6.7
Nc1ccn(CCCN2CCN(C(=O)C3CC3)CC2)c(=O)n1	0.4%	-0.2	/	13.5	0.0%	/	/
COc1ccc(Oc2coc3c(CN4CCOCC4)c(O)ccc3c2=O)cc1	-1.9%	-0.1	23.4%	31.3	?	7.8	-1.2
Cc1ccc(-c2nc3c(cnn3-c3ccccc3)c(=O)n2-c2cccc(Cl)c2)cc1	3.6%	1.9	/	-12.0	?	/	/
CCCCNC(=O)CSc1nc2n[nH]c(C)c2c(=N)n1-c1cccc(C)c1	1.7%	2.8	/	-6.9	10.0%	/	/
O=C(CSc1nc(-c2cccs2)nc2cc(=O)[nH]n12)Nc1ccccc1F	-1.3%	0.5	/	-12.4	-0.4%	2.3	/
CC(=O)Nc1cc(-c2ccc(S(C)(=O)=O)cc2)cn2c(-c3ccc(F)cc3)cnc12	3.7%	-1.1	/	/	-8.5%	/	/
C1=NN(c2ccccc2)C=NN1c1ccccc1	0.4%	0.2	/	-1.4	-15.1%	/	/
CC(Oc1ccc(Cl)cc1Cl)c1ccnc2nc(N3CCOCC3)nn12 (configuration not stated)	1.0%	-0.6	-0.9%	2.8	/	-3.0	-0.7
CN1CCC(C(=O)C(=O)O)C1=O (configuration not stated)	-3.5%	0.6	/	3.7	-8.5%	/	/
Cc1ccc(OCCNc2cc(N3CCN(CCO)CC3)ccc2[N+](=O)[O-])cc1C	25.4%	1.6	-28.4%	-25.3	-11.6%	-4.1	5.2
Cc1ccc(S(=O)(=O)CC(=O)N2CCN(c3ccc(F)cc3)CC2)cc1	1.1%	0.4	13.7%	3.2	/	-25.3	/
COc1ccc(NC(=O)c2cc(C3CCCCN3C(=O)c3cccs3)on2)c(C)c1 (configuration not stated)	1.8%	-0.6	/	/	0.6%	/	/
CCOC(=O)C1=C(C)NC(C)=C(C(=O)OCC)C1C(=O)OCC(=O)NC(C)C	0.2%&-1.2%	0.2&-0.6	10.9%	1.2&-0.3	1.5%&-11.1%	-0.9	5.5
COc1cc(OC)c2c(c1C(CCN1CCN(c3ccccc3)CC1)c1ccc(N(C)C)cc1)OC(=O)CC2c1ccc(N(C)C)cc1 (configuration not stated)	/	0.5	7.4%	-7.1	/	/	4.0
O=CNc1ccc2c(c1)Cc1cccc(NC=O)c1-2	0.7%	0.2	/	5.7	0.7%	/	/
CCOC(=O)c1sc2ncnc(OC)c2c1C	-2.8%	1.4	-4.9%	-4.2	-2.6%	?	-3.7
COc1ccc(N(CC(=O)NCCSc2ccc(C)cc2)S(=O)(=O)c2ccccc2)c(OC)c1	2.1%	1.9	3.0%	24.8	-0.5%	3.2	0.2
COc1ccccc1N1CCN(C(=O)c2cc(-c3cccc(Cl)c3)on2)CC1	5.5%[38.3 µM]	-0.2	-2.0%	6.2	-0.7%	-5.3	2.5
Cc1ccc2c(c1)N(CC(=O)N1CCC(C)CC1)C(=O)c1cccnc1O2	0.1%	0.5	13.2%	26.9	/	4.1	-9.4
CC1(C)CC(=O)C=C(c2ccc(COC(=O)C(c3ccccc3)c3ccccc3)cc2)C1=O	1.4%	0.0	/	-2.8	2.0%	/	/
O=c1[nH]c(=O)n2c(c1-c1ccccc1)OC(CBr)C2 (configuration not stated)	2.0%	-0.7	/	-0.7	2.3%	/	/
CCOC(=O)C(NC(=O)NC1CCCCC1)(c1ccccc1)C(F)(F)F (configuration not stated)	10.2%[38.3 µM]	0.0	3.5%	0.2	5.1%	5.5	7.2
COC(=O)N1CCCCC1c1cc(C(=O)NCc2ccccc2)no1 (configuration not stated)	1.5%	-0.8	/	/	0.5%	/	/
CC(C)C[C@H]1CN([C@@H](Cc2ccccc2)CN2CCC[C@H]2CN2C(=O)C(=O)NC[C@@H]2Cc2ccccc2)C(=O)C(=O)N1CCc1ccccc1	0.7%	-0.5	/	/	-0.9%	/	/
CC(NC(=O)COC(=O)c1ccc(N(C)C)cc1)c1ccccc1 (configuration not stated)	1.6%	0.5	5.5%	24.8	/	-4.2	3.1
CCc1nnc(NC(=O)CSc2nnc3c4ccccc4n(C)c3n2)s1	2.3%	1.3	?	26.6	-0.3%	-0.2	0.2
CCC(=O)Nc1cccc2c1C(=O)N(C)C2=O	1.6%	-0.6	16.8%	-14.8	25.1µM*	-6.8	0.8
COc1ccc(CNC(=O)C2CCN(S(=O)(=O)Cc3ccccc3)CC2)cc1	4.2%	-0.7	/	3.0	1.1%	/	/
O=[N+]([O-])c1ccc(NC(=S)N2CCN(S(=O)(=O)c3ccccc3)CC2)cc1	1.4%	1.0	10.2%	1.2	-2.6%	-6.4	/
